# Screens as filed in PubChem.
# NOMO-1 viab: STK33 inhibitor candidate reducing NOMO-1 cell viability; inhibition, % (no concentration beside the values); NOMO-1 AML viability, CellTiter-Glo luminescence, 72 h; actives 7.5% (n = 37,000);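 active = most replicates above 80%; inconclusive = exactly half above 80%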;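 also: wells of about 30 µL received 25 nL stock; 0% = median of vehicle wells and 100% = reference inhibitor level; the first replicate is given; inactives centre near 10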
# Numbers without * were called inactive; ? = inconclusive.
SMILES,NOMO-1 viab
C[C@@H]1CN([C@@H](C)CO)C(=O)c2cc(NC(=O)CCCN(C)C)ccc2O[C@H]1CN(C)S(=O)(=O)c1ccc(Cl)cc1,17
C[C@H]1CN([C@@H](C)CO)C(=O)Cc2cc(NC(=O)Nc3ccc4c(c3)OCO4)ccc2O[C@@H]1CN(C)C(=O)Nc1cccc2ccccc12,-3
COc1ccc(CCO[C@@H]2O[C@H](CO[C@@H]3OC[C@H](O)[C@H](O)[C@H]3O)[C@@H](OC(=O)/C=C/c3ccc(O)c(OC)c3)[C@H](O[C@@H]3O[C@@H](C)[C@H](O)[C@@H](O)[C@H]3O)[C@H]2O)cc1O,2
COc1ccc(S(=O)(=O)Nc2ccc3c(c2)C(=O)N([C@@H](C)CO)C[C@@H](C)[C@@H](CN(C)C(=O)Nc2cccc4ccccc24)O3)cc1,13
CCOc1ccccc1NC(=O)Cn1cnc2scc(-c3ccc(Cl)cc3)c2c1=O,14
C[C@H]1CN([C@@H](C)CO)C(=O)c2cc(NC(=O)CCCCCC(=O)Nc3ccccc3N)ccc2O[C@@H]1CN(C)S(=O)(=O)c1ccc(F)cc1,-11
COc1ccc(NC(=O)Nc2ccc3c(c2)C(=O)N([C@H](C)CO)C[C@H](C)[C@H](CN(C)Cc2ccc(-c4ccccc4)cc2)O3)cc1,29
Cc1ccc(S(=O)(=O)N(C)C[C@H]2Oc3c(NC(=O)Nc4ccccc4)cccc3C(=O)N([C@H](C)CO)C[C@@H]2C)cc1,28
c1ccc(CNc2nc3ccccc3n2CCN2CCCCC2)nc1,11
C[C@H]1CN([C@@H](C)CO)C(=O)c2cccc(NC(=O)C3CCCCC3)c2O[C@H]1CN(C)CC1CCCCC1,39
C[C@@H]1CN([C@@H](C)CO)C(=O)c2cccc(NC(=O)Nc3ccc(F)cc3)c2O[C@H]1CN(C)S(=O)(=O)c1ccc(F)cc1,4
C[C@@H]1CN([C@@H](C)CO)C(=O)c2cccc(NS(=O)(=O)c3ccc(Cl)cc3)c2O[C@@H]1CN(C)Cc1ccc(C(F)(F)F)cc1,40
C[C@@H]1CN([C@H](C)CO)C(=O)c2cccc(NC(=O)Nc3ccc(C(F)(F)F)cc3)c2O[C@H]1CN(C)S(=O)(=O)c1cccs1,23
CCCCN1C(=O)[C@H]2Cc3c([nH]c4ccccc34)[C@H](c3ccc(OC)cc3)N2C1=O,52
C[C@H]1CN([C@@H](C)CO)C(=O)Cc2cc(NC(=O)NC3CCCCC3)ccc2O[C@H]1CN(C)C(=O)Nc1ccc(C(F)(F)F)cc1,9
CCn1c(SCC(=O)Nc2cccc(F)c2)nnc1-c1ccc(C)cc1,19
C[C@H]1CN([C@@H](C)CO)C(=O)c2cccc(NC(=O)Nc3ccc(F)cc3)c2O[C@H]1CN(C)S(=O)(=O)c1cn(C)cn1,24
C[C@H]1CN([C@@H](C)CO)C(=O)Cc2cc(NC(=O)Nc3ccc4c(c3)OCO4)ccc2O[C@H]1CN(C)C(=O)Nc1ccccc1,-10
C[C@H](CO)N1C[C@H](C)[C@H](CN(C)C(=O)Nc2ccc3c(c2)OCO3)Oc2c(NS(=O)(=O)c3ccccc3)cccc2C1=O,-4
Cc1noc(C)c1NC(=O)Nc1ccc2c(c1)CC(=O)N([C@@H](C)CO)C[C@H](C)[C@@H](CN(C)C(=O)NC1CCCCC1)O2,-2

# 2 of the compounds above, field by field:
compound: C[C@H]1CN([C@@H](C)CO)C(=O)Cc2cc(NC(=O)Nc3ccc4c(c3)OCO4)ccc2O[C@H]1CN(C)C(=O)Nc1ccccc1
  NOMO-1 viab = -10

compound: C[C@H]1CN([C@@H](C)CO)C(=O)c2cccc(NC(=O)C3CCCCC3)c2O[C@H]1CN(C)CC1CCCCC1
  NOMO-1 viab = 39

# The listing picks up, repeating the 4 entries before the break.
SMILES,NOMO-1 viab
C[C@H]1CN([C@@H](C)CO)C(=O)c2cccc(NC(=O)Nc3ccc(F)cc3)c2O[C@H]1CN(C)S(=O)(=O)c1cn(C)cn1,24
C[C@H]1CN([C@@H](C)CO)C(=O)Cc2cc(NC(=O)Nc3ccc4c(c3)OCO4)ccc2O[C@H]1CN(C)C(=O)Nc1ccccc1,-10
C[C@H](CO)N1C[C@H](C)[C@H](CN(C)C(=O)Nc2ccc3c(c2)OCO3)Oc2c(NS(=O)(=O)c3ccccc3)cccc2C1=O,-4
Cc1noc(C)c1NC(=O)Nc1ccc2c(c1)CC(=O)N([C@@H](C)CO)C[C@H](C)[C@@H](CN(C)C(=O)NC1CCCCC1)O2,-2
CNC[C@H]1Oc2ccc(NC(=O)CCN3CCOCC3)cc2C(=O)N([C@H](C)CO)C[C@@H]1C,19
COc1ccc(C(=O)NC23CC4CC(CC(C4)C2)C3)cc1,11
C[C@H]1CN([C@@H](C)CO)C(=O)Cc2cc(NS(=O)(=O)c3ccc(Cl)cc3)ccc2O[C@@H]1CN(C)C(=O)Nc1cccc2ccccc12,-18
C[C@@H]1CN([C@@H](C)CO)C(=O)Cc2cc(NS(=O)(=O)c3cccs3)ccc2O[C@@H]1CN(C)S(C)(=O)=O,2
C[C@H](CO)N1C[C@H](C)[C@H](CN(C)Cc2ccc3c(c2)OCO3)Oc2c(NC(=O)Nc3cccc4ccccc34)cccc2C1=O,22
COc1c(OC/C=C(\C)CC2C=C(C)C(=O)O2)ccc2ccc(=O)oc12 (centres undefined),12
S=c1[nH]nc(Cn2nnc3ccccc32)o1,-10
O=c1oc2ccccc2n1CCn1c2ccccc2c2nc3ccccc3nc21,12
C[C@H](CO)N1C[C@H](C)[C@H](CN(C)S(=O)(=O)c2ccc(F)cc2)Oc2ccc(NC(=O)Cc3cn(C)c4ccccc34)cc2C1=O,14
CC(C)NC(=O)Nc1ccc2c(c1)CC(=O)N([C@@H](C)CO)C[C@H](C)[C@@H](CN(C)S(=O)(=O)c1cn(C)cn1)O2,9
C[C@@H]1CN([C@H](C)CO)C(=O)c2cccc(NC(=O)c3nc4ccccc4s3)c2O[C@@H]1CN(C)S(=O)(=O)c1ccc(Cl)cc1,65
C[C@H]1CN([C@@H](C)CO)C(=O)Cc2cc(NS(=O)(=O)c3cn(C)cn3)ccc2O[C@H]1CN(C)S(=O)(=O)c1cccs1,10
O=C(O)c1ccccc1S(=O)c1ccc(Cl)cc1 (centres undefined),8
C[C@@H]1CCCCO[C@@H](CN(C)C(=O)C2CCCCC2)[C@@H](C)CN([C@H](C)CO)C(=O)c2cc(NC(=O)NC3CCCCC3)ccc2O1,34
C[C@@H]1CN([C@@H](C)CO)C(=O)c2cccc(NC(=O)NC3CCCCC3)c2O[C@H]1CN(C)S(=O)(=O)c1cn(C)cn1,10
CC(C)NC(=O)Nc1cccc2c1O[C@@H](CN(C)C(=O)Nc1ccc3c(c1)OCO3)[C@H](C)CN([C@H](C)CO)C2=O,-12
Cc1noc(C)c1S(=O)(=O)N(C)C[C@@H]1Oc2ccc(NC(=O)Cc3ccccc3)cc2CC(=O)N([C@H](C)CO)C[C@@H]1C,-2
Cc1ccc(S(=O)(=O)Nc2cccc3c2O[C@H](CN(C)Cc2ccc4c(c2)OCO4)[C@H](C)CN([C@H](C)CO)C3=O)cc1,7
C[C@@H]1CN([C@@H](C)CO)C(=O)c2cc(NC(=O)Nc3ccccc3)ccc2O[C@@H]1CN(C)CC1CCCCC1,21
O=C(Nc1sc2c(c1C(=O)NCC1CCCO1)CCC2)c1sc2ccccc2c1Cl (centres undefined),-3
CC(Sc1nc(N2CCOCC2)c2c(c1C#N)CC(C)(C)OC2)C(=O)Nc1ccccc1 (centres undefined),19
CC(=O)c1ccc(NC(=O)CN(C)S(=O)(=O)c2ccc(C)cc2)cc1,-11
O=C(O)CCC(NC(=O)c1ccc(Cl)cc1)C(=O)O (centres undefined),2
C[C@@H]1CN([C@@H](C)CO)C(=O)c2cc(NC(=O)Nc3ccc(C(F)(F)F)cc3)ccc2O[C@@H]1CN(C)Cc1ccncc1,13
Cc1cc(-c2ccc(Cl)cc2)nc(SCC(=O)Nc2ccccc2)n1,8
COC(=O)CSc1nnc(-c2cccs2)n1-c1ccc(Cl)cc1,101*
CC1(C)CC(=O)C2=C(C1)Nc1ccc3ccccc3c1C2c1cccnc1 (centres undefined),?
C[C@H]1CN([C@@H](C)CO)C(=O)Cc2cc(NC(=O)Nc3ccc4c(c3)OCO4)ccc2O[C@@H]1CN(C)Cc1ccc(C(F)(F)F)cc1,?
O=C(CS(=O)(=O)c1ccccc1)Nc1ccc2c(c1)OCCO2,5
C[C@@H]1CN([C@H](C)CO)C(=O)c2cccc(NC(=O)c3nc4ccccc4s3)c2O[C@@H]1CN(C)CC1CCCCC1,32
C[C@@H]1CN([C@H](C)CO)C(=O)c2cc(NC(=O)Nc3cccc4ccccc34)ccc2O[C@@H]1CN(C)Cc1ccc(C(F)(F)F)cc1,?
O=C(CSc1ncn[nH]1)Nc1ccc2c(c1)OCCO2,26
O=C(Cn1c(-c2cncs2)nc2ccccc21)NCc1ccccc1,44
C[C@@H]1CCCCO[C@@H](CN(C)CC2CC2)[C@@H](C)CN([C@H](C)CO)C(=O)c2cc(NS(=O)(=O)c3ccc(F)cc3)ccc2O1,21
Cc1ccc(S(=O)(=O)N(C)C[C@H]2Oc3c(NS(=O)(=O)c4ccc(F)cc4)cccc3C(=O)N([C@H](C)CO)C[C@H]2C)cc1,4
COc1ccccc1-n1c(CSc2nc3cc(C(=O)N4CCCC4)ccc3s2)nc2ccccc2c1=O,49
CC(C)NC(=O)Nc1ccc2c(c1)C(=O)N([C@H](C)CO)C[C@H](C)[C@@H](CN(C)C(=O)Nc1ccc3c(c1)OCO3)O2,19
C[C@@H]1CN([C@@H](C)CO)C(=O)c2cccc(NC(=O)Nc3cccc4ccccc34)c2O[C@H]1CN(C)CC1CC1,24
C[C@H]1CN([C@@H](C)CO)C(=O)Cc2cc(NC(=O)Cc3cn(C)c4ccccc34)ccc2O[C@H]1CN(C)C(=O)Nc1cccc2ccccc12,14
Cc1sc2nc(SCC(=O)NCc3ccco3)n(C)c(=O)c2c1C,13
C[C@H]1CN([C@@H](C)CO)C(=O)Cc2cc(NC(=O)CCCCCC(=O)Nc3ccccc3N)ccc2O[C@@H]1CN(C)S(C)(=O)=O,3
C[C@@H]1CN([C@H](C)CO)C(=O)c2cccc(NS(=O)(=O)c3ccccc3)c2O[C@@H]1CN(C)Cc1ccc(C(=O)Nc2ccccc2N)cc1,128*
Cc1ccc(S(=O)(=O)Nc2cccc3c2O[C@@H](CN(C)C(=O)NC(C)C)[C@@H](C)CN([C@@H](C)CO)C3=O)cc1,-4
C[C@H](CO)N1C[C@H](C)[C@@H](CN(C)C)Oc2c(NC(=O)c3ccc(-c4nccs4)cc3)cccc2C1=O,1
C[C@@H]1CCCCO[C@H](CN(C)Cc2ccc(C(F)(F)F)cc2)[C@@H](C)CN([C@H](C)CO)C(=O)c2cc(NC(=O)c3ccccc3)ccc2O1,53
Nc1ccc2c3c(cccc13)C(=O)NC2=O,20
C[C@H]1CN([C@@H](C)CO)C(=O)Cc2cc(NC(=O)Nc3ccc(C(F)(F)F)cc3)ccc2O[C@@H]1CN(C)Cc1ccc(Cl)c(Cl)c1,22
COc1ccc(CCNC(=O)Nc2ccc([N+](=O)[O-])cc2)cc1OC,-7
O=C(/C=C/c1ccc(O)cc1)NCCc1ccc(O)cc1,36
CC(C)NC(=O)N(C)C[C@H]1Oc2c(NS(C)(=O)=O)cccc2C(=O)N([C@H](C)CO)C[C@H]1C,-3
Cc1cc(Br)ccc1NC(=O)CSc1ncn(-c2ccccc2)n1,43
CNC(=O)NC(=O)CSc1nnc(-c2ccco2)o1,-18
C[C@@H]1CN([C@H](C)CO)C(=O)c2cc(NC(=O)c3ccncc3)ccc2O[C@@H]1CN(C)Cc1ccc(C(F)(F)F)cc1,25
C[C@H](CO)N1C[C@H](C)[C@@H](CN(C)Cc2ccc(-c3ccccc3)cc2)Oc2c(NC(=O)Nc3cccc4ccccc34)cccc2C1=O,?
COc1ccc(NC(=O)N(C)C[C@@H]2Oc3ccc(NC(=O)Nc4cccc5ccccc45)cc3CC(=O)N([C@H](C)CO)C[C@H]2C)cc1,10
COc1ccc(S(=O)(=O)N(C)C[C@@H]2Oc3ccc(N(C)C)cc3CC(=O)N([C@H](C)CO)C[C@@H]2C)cc1,-3
Cc1ccc(S(=O)(=O)Nc2cccc3c2O[C@H](CN(C)Cc2ccc(Oc4ccccc4)cc2)[C@H](C)CN([C@H](C)CO)C3=O)cc1,?
CCCN(C)C[C@@H]1OCCCC[C@@H](C)Oc2ccc(NC(=O)NC3CCCCC3)cc2C(=O)N([C@H](C)CO)C[C@@H]1C,14
CCN(CC(=O)Nc1cc([N+](=O)[O-])ccc1C)S(=O)(=O)c1ccc2ccccc2c1,9
C[C@@H]1CN([C@H](C)CO)C(=O)c2cccc(NC(=O)C3CCCCC3)c2O[C@H]1CN(C)Cc1ccncc1,0
# Following part
SMILES,NOMO-1 viab
Cn1c(SCC(=O)Nc2cccc(C(=O)O)c2)nnc1-c1ccccc1,41
C[C@H]1CN([C@@H](C)CO)C(=O)Cc2cc(NC(=O)Nc3ccc4c(c3)OCO4)ccc2O[C@H]1CN(C)S(=O)(=O)c1ccc(F)cc1,128*
Cc1ccc(S(=O)(=O)Nc2cccc3c2O[C@H](CN(C)S(=O)(=O)c2ccc(Cl)cc2)[C@@H](C)CN([C@@H](C)CO)C3=O)cc1,2
O=C(CSc1nnc(-c2ccccc2Cl)n1-c1ccccc1)Nc1ccc([N+](=O)[O-])cc1,19
Cc1cc(C)c(C)c(OCC(O)Cn2cnc3ccccc32)c1 (centres undefined),56
C[C@H]1CN([C@@H](C)CO)C(=O)c2cccc(NC(=O)c3ccncc3)c2O[C@@H]1CN(C)C(=O)NC1CCCCC1,22
C[C@H]1CN([C@@H](C)CO)C(=O)c2cc(NC(=O)Nc3ccc4c(c3)OCO4)ccc2O[C@H]1CN(C)C(=O)Nc1cccc2ccccc12,-8

# Retrieved one by one from above:
SMILES,NOMO-1 viab
C[C@H]1CN([C@@H](C)CO)C(=O)Cc2cc(NC(=O)Nc3ccc4c(c3)OCO4)ccc2O[C@H]1CN(C)S(=O)(=O)c1ccc(F)cc1,128*
Cn1c(SCC(=O)Nc2cccc(C(=O)O)c2)nnc1-c1ccccc1,41

# This is a subset; rates above refer to the full screens.
